# From PubChem
# VDR inh: vitamin D3 receptor (human) inhibition; Potency, µM, for the others: max response, negative = inhibition, hits mostly inhibitors; AID 504847; P11473; VDR-SRC2-3 peptide fluorescence polarization, 2 h; 400,000 compounds, 0.93% hits; active = well fitted inhibition curve with a large enough effect; inconclusive = small, poorly fitted or top-dose-only effect, or another doubt; inactive = no such curve, though single readings can be large or run the other way; also: series mostly up to about 120 µM
# Target sequence (P11473 whole entry, looked up): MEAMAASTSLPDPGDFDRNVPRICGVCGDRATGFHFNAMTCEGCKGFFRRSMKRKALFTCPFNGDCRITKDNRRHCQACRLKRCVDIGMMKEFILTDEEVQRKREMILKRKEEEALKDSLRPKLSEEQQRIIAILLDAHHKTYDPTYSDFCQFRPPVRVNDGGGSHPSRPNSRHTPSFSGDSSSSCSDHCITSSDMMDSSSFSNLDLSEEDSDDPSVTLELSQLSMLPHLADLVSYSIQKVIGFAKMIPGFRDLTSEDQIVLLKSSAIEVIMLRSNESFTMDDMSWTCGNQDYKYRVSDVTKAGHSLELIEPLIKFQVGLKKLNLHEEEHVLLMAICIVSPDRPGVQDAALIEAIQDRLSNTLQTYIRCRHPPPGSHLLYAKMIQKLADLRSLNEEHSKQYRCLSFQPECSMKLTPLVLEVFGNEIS
#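 Reagent solutions, kept cold and dark, are dispensed first; compounds are then pinned in at 23 nl, plates briefly spun, and incubated 2 h at ambient temperature. Inhibition of VDR–SRC2-3 peptide binding is read by fluorescence polarization.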
# * marks the source's active call; other numbers are inactive results; ? = inconclusive. % is scaled to controls: 0 for no effect and ±100 for the full control effect; potency is read from the fitted curve at half-maximal effect. The list is partial. The share of hits here may be higher or lower than overall.
VDR inh | smiles
3.4% | O=C1[C@@H]2[C@H](C(=O)N1Cc1ccco1)[C@H]1C=C[C@@H]2C1
1.6% | CCOC(=O)Cn1c(C)cc(=O)c2cccc(C)c21
2.8% | O=S(=O)(c1cccc2c(Cl)cccc12)N1CCCNCC1
9.7% | CCOc1ccc(Nc2nc(Cc3nnc(SCC(=O)c4ccc(C)c(C)c4)o3)cs2)cc1
0.3% | Cc1ccc(CN2CCN(/N=C/c3ccccc3)CC2)cc1
-4.7% | COCCCNC(=O)CCCN1C(=O)c2cccnc2Sc2ccccc21
1.4% | CCOC(=O)Cn1c(CN2CC(C)OC(C)C2)nc2c1c(=O)n(C)c(=O)n2C (centres undefined)
-14.2% | CCCCC(=O)Nc1cc(OC)c(NC(=S)NC)cc1OC
-10.0% | CCOCCn1ccc2c(OCC(=O)Nc3cccc([N+](=O)[O-])c3)cccc2c1=O
8.0% | COc1cccc(NC(=O)CN(C)C(=O)/C=C/c2cn(-c3ccccc3)nc2-c2cccs2)c1
3.0% | COc1ccc(CC(=O)NC(CC(=O)O)c2cccc([N+](=O)[O-])c2)cc1 (centres undefined)
14.2% | Cc1ccc(-n2ncc(C(=O)NC3CCN(Cc4ccccc4)CC3)c2C2CCN(C(=O)OC(C)(C)C)CC2)cc1C
7.7% | CC1=NN(C(=O)c2csc(C(C)C)c2)C(O)(C(F)(F)F)C1 (centres undefined)
21.1% | COc1cc(CNC23CC4CC(CC(C4)C2)C3)ccc1OCc1ccccc1
-6.2% | COc1ccccc1NC(=O)Nc1nnc(Cc2ccc(F)cc2)s1
-5.0% | CS(=O)(=O)C1=NN2C(=N)/C(=C\c3ccc(OCCOc4ccccc4)cc3)C(=O)N=C2S1
-6.7% | O=C(CSc1nc2ccc(Nc3nc(N4CCOCC4)nc(N4CCOCC4)n3)cc2s1)Nc1ccccc1F
-5.2% | O=C(NCCC1CCCCN1S(=O)(=O)c1ccc(F)cc1)C(=O)NC1CC1 (centres undefined)
5.5% | CCOC(=O)c1c(C)[nH]c(C(=O)OCC(O)=C(C#N)c2nc3ccccc3[nH]2)c1C
2.8% | CC1CCCN(CC(O)COCC2COc3ccccc3O2)C1 (centres undefined)
-20.5% | CCN(CC)CCN(C(=O)CCS(=O)(=O)c1ccccc1)c1nc2cc(C)cc(C)c2s1
2.1% | CN(Cc1ccccc1)C(=O)CSc1nc2ccsc2c(=O)n1-c1ccc(F)cc1
4.7% | CCn1nc(NC(=O)C(C)C)c2cc3ccc(C)cc3nc21
-10.6% | O=C(CN1C(=O)C(=O)N(CCC2=CCCCC2)C1=O)Nc1ccc(F)cc1F
-1.1% | COc1ccc(/C=C\c2nc(=O)c3ccccc3o2)cc1
-18.7% | C=CCc1cc(Cl)ccc1OCCn1ccnc1
9.6% | CCC(CC)C(=O)Nc1cccc(C(=O)NCCc2ccc(S(N)(=O)=O)cc2)c1
-5.5% | CCN(c1ccccc1)S(=O)(=O)c1ccc(OCC(=O)N2CCCC2)cc1
15.5% | CCOC(=O)c1c(C)[nH]c(C)c1S(=O)(=O)N1CCC(C(=O)N2CCN(c3ccccc3)CC2)CC1
4.4% | CCn1c(SCC(N)=O)nnc1-c1ccc(OC)c(OC)c1
-21.7% | CC(=O)Nc1ccc2nc(NC(=O)C(Cl)(Cl)Cl)sc2c1
-1.9% | Cc1oc(-c2ccc(Cl)cc2)nc1CSCC(=O)NCc1ccccc1Cl
-20.4% | COc1ccc(C2(C(=O)NCCc3ccccc3)CCCC2)cc1
0.9% | COc1ccc(F)cc1S(=O)(=O)N1CCN(c2ccccn2)CC1
-0.3% | Cc1cc(C)c2cc(C#N)c(SCC(=O)Nc3cc(C)on3)nc2c1
-1.2% | Cc1ccc(Cl)c(NC(=O)COC(=O)C2CCC2)c1Cl
-28.0% | CCOC(=O)C1(Cc2ccccc2C)CCCN(Cc2cc(OC)c(O)c(OC)c2)C1 (centres undefined)
-1.8% | O=C(O)Cn1ccnc1
10.1% | CCOC(=O)/C(=N\Nc1cccc(Cl)c1)Sc1nnc(-c2ccc(OC)cc2)n1C
18.6% | Cc1cc(OC(C)C(N)=O)nc(-c2ccccc2)n1 (centres undefined)
-11.5% | CCOC(=O)N=Nc1c2ccccc2c2nc3no[nH]c3nc12
-0.1% | CN(C(=O)CSc1nnnn1C)C1(C#N)CCCCC1
17.8% | COc1ccccc1CN1CCN(Cc2cc(OC)c(OC)cc2OC)CC1
14.5% | NC1=NC(=O)CC(C(=O)Nc2cccc3ccccc23)S1 (centres undefined)
-2.1% | COc1cccc2c1-c1c(O)cccc1C2=O
9.3% | CCOC(=O)C1=C(N)OC(C)=C(C#N)C1c1ccco1 (centres undefined)
12.2% | Cc1cccc(C)c1NC(=O)C(C)N1CCCC1 (centres undefined)
? | N#Cc1cc(-c2ccccc2)nn1-c1ccccc1
-7.2% | COc1ccc(CNc2ccc(C)c(C)c2)cc1
8.6% | O=S(=O)(/N=C(/c1ccc(Cl)cc1)N1CCOCC1)c1ccc(Cl)cc1
-7.1% | O=c1oc(/C=C/c2ccc([N+](=O)[O-])s2)nc2ccccc12
-5.6% | NC(=O)CC(NC(=O)Cc1ccc(Br)cc1)c1ccc(NCCc2cccc(F)c2)c([N+](=O)[O-])c1 (centres undefined)
-5.4% | COc1ccc(C(Sc2ccccc2)c2ccccc2)cc1OC (centres undefined)
-20.7% | N#Cc1c(-c2ccco2)nc(SCC(=O)Nc2cccc(Cl)c2)[nH]c1=O
-2.1% | Cc1ccc(-n2nc3c(c2NC(=O)c2ccccc2)CS(=O)(=O)C3)cc1C
-11.3% | CC(=O)Nc1ccc(NC(=O)c2cc(=O)c3cc(C)c(C)cc3o2)cc1
-5.3% | CC1CCN(S(=O)(=O)N2CCC(C(=O)N3CCC(N(C)CC4CCCO4)CC3)CC2)CC1 (centres undefined)
-10.4% | COc1ccc(-c2cc(C(=O)OCC(=O)c3ccc(C)c([N+](=O)[O-])c3)c3ccccc3n2)cc1
-7.2% | N#Cc1c(-c2ccccc2)[nH]c(=O)[nH]c1=O
18.4% | C[C@H](NC(c1cccc2nc(O)c(O)nc12)P(=O)(O)O)c1ccc(Br)cc1 (some centres undefined)

# The results go on.
VDR inh | smiles
7.6% | CCOc1ccc(/C=N/Nc2nc(=O)[nH]nc2C)cc1OC
-4.5% | Cc1nnc2ccc(Oc3ccc(-c4ccccc4)cc3)nn12
12.3% | N#Cc1cccc(NC(=O)COc2ccc(-n3ccnc3)cc2)c1
-9.8% | C/C(=N\Nc1ncc(Cl)cc1Cl)c1ccc(OC(F)F)cc1
-7.1% | O=C(/C=C/c1cccs1)Nc1ccc([N+](=O)[O-])cc1
4.0% | COc1ccc(/C=N/NC(=O)c2ccc3nc[nH]c3c2)cc1
-1.8% | CC(C)NC(=O)N1CC[C@@]2(CCCN(C(=O)c3cc(C(F)(F)F)cc(C(F)(F)F)c3)C2)C1
? | O=C1NC(=S)S/C1=C\c1cc(Cl)ccc1Cl
0.5% | COc1ccc(CNC(=O)CCc2c(C)nn(-c3ccc(N4CCOCC4)nn3)c2C)cc1
-3.5% | O=C(CCc1nnc2ccc(N3CCCC3)nn12)Nc1ccc(F)cc1F
8.9% | CN(Cc1ccccc1)C(=O)COc1ccc(Br)cc1Cl
-12.7% | CC(/C=N/NC(=O)Cn1cnc2ccccc21)=C\c1ccccc1
-7.1% | COc1cccc(C(=O)Nc2c[nH]c(=O)[nH]c2=O)c1
-3.6% | CCc1ccc(CNc2ncnc3onc(-c4ccc(Cl)cc4)c23)cc1
-7.8% | Cc1cc(Cl)ccc1NC(=O)CCCn1nc(C)c2c(C)n(-c3ccccc3)nc2c1=O
-4.0% | CC(=O)N1CCN(C(=O)CNc2cc(C(F)(F)F)ccc2OCC(F)(F)F)CC1
-8.2% | O=C(O)C1CCCCC1C(=O)NCCc1ccccc1 (centres undefined)
12.0% | Cc1cc(NC(=O)C(=O)NCc2cccc(Cl)c2)no1
0.8% | CC1CCN(S(=O)(=O)c2ccc3c(c2)N(CC(=O)NC(C)c2ccccc2)C(=O)CS3)CC1 (centres undefined)
-21.4% | COc1ccccc1NS(=O)(=O)c1cc([N+](=O)[O-])ccc1N/N=C/c1sc(N2CCOCC2)nc1-c1ccccc1
-12.3% | Nc1nc(Sc2ccc(C(F)(F)F)cn2)n[nH]1
18.1% | Cc1ccc(/C=C/C(=O)Nc2ccc(S(=O)(=O)Nc3onc(C)c3C)cc2)cc1
-1.3% | COc1ccccc1CNCc1ccc(C)cc1
-11.4% | Cc1ccc(C(=O)OCC(=O)NCc2cccs2)cc1C
1.2% | COc1ccccc1NS(=O)(=O)c1ccc(C(=O)N2CCN(c3ccccc3O)CC2)cc1
2.6% | CCOc1cc(C(=O)OCC(=O)c2c(C)[nH]c3ccccc23)ccc1OCC(=O)N1CCOCC1
-14.3% | Cc1cc(SCC(=O)NC2(C#N)CCCCC2)nc2c(C)cccc12
0.3% | Cc1nc(N2CCCCC2)c2c(C)c(C(=O)Nc3ccccc3C(F)(F)F)sc2n1
-5.3% | O=S(=O)(Cc1ccccc1)Nc1ccc(S(=O)(=O)N2CCCC2)cc1
10.7% | Cc1ccc(Cl)cc1N1CCN(C(=O)CN2C(=O)CSc3c2c(C)nn3-c2ccccc2)CC1

# An excerpt from above in order of their number in VDR inh, falling:
Compound,VDR inh
CCOc1ccc(/C=N/Nc2nc(=O)[nH]nc2C)cc1OC,7.6%
CC(C)NC(=O)N1CC[C@@]2(CCCN(C(=O)c3cc(C(F)(F)F)cc(C(F)(F)F)c3)C2)C1,-1.8%
COc1cccc(C(=O)Nc2c[nH]c(=O)[nH]c2=O)c1,-7.1%

# 4 of these compounds, reformatted.
CCOC(=O)Cn1c(C)cc(=O)c2cccc(C)c21
  VDR inh: 1.6%

O=S(=O)(c1cccc2c(Cl)cccc12)N1CCCNCC1
  VDR inh: 2.8%

CCOc1ccc(Nc2nc(Cc3nnc(SCC(=O)c4ccc(C)c(C)c4)o3)cs2)cc1
  VDR inh: 9.7%

Cc1ccc(CN2CCN(/N=C/c3ccccc3)CC2)cc1
  VDR inh: 0.3%

# Other structures
VDR inh | smiles
20µM* | COC(=O)C1=C(C(=O)OC)C(c2ccccc2O)c2sc(=O)[nH]c2S1 (centres undefined)
-0.5% | CC(C)C[C@H](NC(=O)[C@H]1O[C@@H]1C(=O)O)C(=O)NCCCCN=C(N)N
15.5% | CCc1nn(CC(=O)NCCc2ccc(OC)cc2OC)c(=O)c2cc3sccc3n12
5.4% | O=C(COc1ccccc1)N(Cc1cccnc1)c1nc2c(F)cccc2s1
-25.6% | Cc1ccc(NC(=O)COC(=O)CCn2c(C)csc2=O)cc1S(=O)(=O)N1CCOCC1
-7.9% | CCCCn1c(=O)[nH]c(=O)c2c1nc(-c1ccccc1F)n2Cc1ccccc1
-20.0% | CCc1ccc(NS(=O)(=O)c2cc(Br)cc3c2N(C(C)=O)CC3)cc1
-18.8% | O=C(CCc1nc2cccnc2n1Cc1ccccc1)NCCc1ccc(Cl)cc1
-15.3% | CCOc1ccc(C(=O)OC(C)CN2CCN(C)CC2)cc1 (centres undefined)
-5.6% | CSc1cccc(NC(=S)N(Cc2ccc(C)cc2)Cc2cccnc2)c1
-18.4% | Cc1nn(C(=O)c2ccccc2)c(C)c1Sc1ccc(Cl)cc1
-21.6% | O=C(NCc1ccco1)C1CC(c2ccc(C(F)(F)F)cc2)=NO1 (centres undefined)
? | CCN1C(=NCc2cc(OC)c(OC)c(OC)c2)N[C@@H](c2ccccc2)C(C(=O)OC)=C1C
7.9% | CCOC(=O)C1CCCN(Cc2ccc(-c3ccccc3)cc2)C1 (centres undefined)
0.7% | Cc1ccc(-c2csc(NC(=O)C3CCN(S(=O)(=O)c4cccs4)CC3)n2)cc1
-8.9% | O=C(NCc1cccnc1)c1csc2c1CCCC2
-6.3% | Cc1ccc(-c2nc(Nc3ccc(O)cc3)c3ccccc3n2)cc1
-17.8% | O=C1CCN(Cc2ccc(Cl)cc2)N1
11.0% | CC(=O)c1cccc(NC(=O)Cn2c(=O)oc3cc(S(=O)(=O)NCc4ccccc4)ccc32)c1
19.3% | CN=Cc1cc(-c2ccccc2)sc1O
-8.6% | CN1CCC(OC(=O)COc2ccc(F)cc2)CC1
-2.6% | CC(=O)c1c(C)nc(-c2ccccc2)nc1NC(=O)Cc1ccccc1
-4.8% | Cc1onc(-c2ccccc2)c1C(=O)NCc1ccc(Cl)cc1
-17.8% | CC(C)(C)c1ccc(Cn2nnc3c(=O)[nH]c(C4CCN(C(=O)c5ccco5)CC4)nc32)cc1
1.6% | Cc1ccccc1C(=O)Nc1ccc(C(=O)OCc2cc(=O)n3nc(C4CC4)sc3n2)cc1
-12.2% | CCc1nc(N2CCOCC2)c(C#N)c2c1CCCC2
4.5% | CCc1ccc(C(=O)NC(Cc2c[nH]c3ccccc23)C(=O)OCC(=O)c2ccc(Br)cc2)cc1 (centres undefined)
1.1% | Cc1onc(-c2ccccc2)c1C(=O)Nc1ccnn1C1CCCCC1
16.8% | CCCn1c(N2CCN(C(=O)Nc3ccccc3)CC2)nc2ccccc21
-14.8% | CC1=CC=CC2=NC(=O)CC(C)(C(=O)N(CC(=O)NC(C)C)C3CCCC3)N12 (centres undefined)
8.1% | CC(C)N(Cc1ccccc1)C(=O)CCc1ccccc1
-15.0% | CC1Cc2ccccc2N1C(=O)COC(=O)CSc1ccc(F)cc1 (centres undefined)
8.2% | CCN1C(=O)CSC1=NC12CC3CC(CC(C3)C1)C2
10.3% | COc1ccccc1CNC(=O)C1CCN(c2nc3ccccc3o2)CC1
2.3% | CCCn1c(SCC(=O)Nc2nnc(-c3ccccc3)s2)nnc1-c1ccccn1

# 3 structures already listed, sorted by number of heavy atoms, smallest number first.
VDR inh | smiles
8.2% | CCN1C(=O)CSC1=NC12CC3CC(CC(C3)C1)C2
10.3% | COc1ccccc1CNC(=O)C1CCN(c2nc3ccccc3o2)CC1
-14.8% | CC1=CC=CC2=NC(=O)CC(C)(C(=O)N(CC(=O)NC(C)C)C3CCCC3)N12 (centres undefined)
